Beta apoptosis = beta cell apoptosis inhibition. INS-1E cytokine-induced death, ATP luminescence, 48 h; percent of positive-control rescue, neutral wells zero. protection from apoptosis, % (test concentration not listed). 300,000 tested, 0.8% active;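 active means all replicates at 75% or more, or half of them and the mean; inconclusive means half reach 75% but not the mean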;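 further: 0% = cytokine-treated negative control wells and 100% = positive control rescue; higher means more ATP so stronger rescue from cytokine killing; wells of about 40 µL received 100 nL stock; the first replicate is given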
T cruzi repl = blocks replication of Trypanosoma cruzi | T. cruzi beta-gal in NIH3T3, luminescence, 90 h | inhibition, % (no concentration beside the values) | 300,000 tested, 1.4% active;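 active means mean inhibition across valid replicates above about 55%, limit read from the data; inconclusive means mean below that limit but half or more replicates reach it; inactive means mean below it, under half of replicates reach it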;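 further: signal also drops with host cell toxicity which is not excluded here; 0% = plate median of DMSO wells and 100% = zero luminescence signal; higher percent means less beta-gal luminescence so fewer parasites; stock transfer was 50 nL into about 50 µL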
Calb FLC = affects C. albicans growth with fluconazole. C. albicans CaCi-2 (fluconazole-resistant clinical isolate) + fluconazole, Alamar Blue growth, 48 h. growth inhibition, % (test concentration not listed). 300,000 tested, 0.57% active. AID 1979;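 active means most replicates above 75%; inconclusive means exactly half above 75%; inactive means most below 75%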;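 further: all wells also contain fluconazole at 8 µg/ml as a sub-toxic cotreatment; 0% = median of DMSO wells and 100% = median of geldanamycin control wells; wells of about 8 µL received 7.5 nL stock; the first replicate is given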
RanGTP-Imp inh = inhibitors of RanGTP-importin-beta interaction, primary screen, biochemical, FRET, CFP-Ran, YFP-importin-beta, homogeneous; cell-free CFP-Ran/YFP-importin-beta FRET ratio; inhibition, % (test concentration not listed); 300,000 tested, 1.1% active;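 active means most replicates above 15%; inconclusive means exactly half above 15%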;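 further: 0% = DMSO wells and 100% = Ran loaded with GDP instead of GTP; wells of about 40 µL received 100 nL stock; the first replicate is given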
Beta2AR agonist = human beta-2 adrenergic receptor agonism by FAP; P07550; Am2.2-beta2AR cells, FAP receptor internalization, flow cytometry; reference of the scale not given here; response, % (test concentration not listed); 340,000 tested, 0.43% active; AID 504454;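 active means response above a set limit, near 3 SD of response in nonfluorescent compounds, cut at about 42% in these data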;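 further: stock transfer was 100 nL into about 11 µL; a reference agonist was the positive control; negative values mostly stem from fluorescent compounds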
A1 inh = inhibitors of the anti-apoptotic protein A1, read as caspase activation; AID 2462; 330,000 tested, 0.066% active; MEF A1-2A-BIM cells, Caspase-Glo 3/7 luminescence, 3 h; percent of clofoctol response, vehicle zero; caspase activation, % (concentration not given with the values);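 active means over half of replicate activation scores above 10%, or exactly half above 10 with the replicate mean above 10; inconclusive means replicate mean below 10 yet half the replicates above 10; inactive means over half of replicates below 10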;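 further: wells of about 30 µL received 50 nL stock; many hits fall short of the cut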
LANA-H2A inh = blocks KSHV LANA binding to histone H2A/H2B. Q9QR71. cell-free LANA-H2A/H2B peptide, fluorescence polarization. inhibition, % (no concentration beside the values). 320,000 tested, 0.6% active. AID 2629; in the data active means inhibition mostly above about 10%, no sharp cut-off; inactive means mostly below about 6.7%;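 further: stock transfer was 7.5 nL into about 10 µL; 0% = median of vehicle wells and 100% = median of positive control wells; one replicate is shown; the record names a cut of 25% in any replicate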
Target sequence (Q9QR71 whole entry, looked up): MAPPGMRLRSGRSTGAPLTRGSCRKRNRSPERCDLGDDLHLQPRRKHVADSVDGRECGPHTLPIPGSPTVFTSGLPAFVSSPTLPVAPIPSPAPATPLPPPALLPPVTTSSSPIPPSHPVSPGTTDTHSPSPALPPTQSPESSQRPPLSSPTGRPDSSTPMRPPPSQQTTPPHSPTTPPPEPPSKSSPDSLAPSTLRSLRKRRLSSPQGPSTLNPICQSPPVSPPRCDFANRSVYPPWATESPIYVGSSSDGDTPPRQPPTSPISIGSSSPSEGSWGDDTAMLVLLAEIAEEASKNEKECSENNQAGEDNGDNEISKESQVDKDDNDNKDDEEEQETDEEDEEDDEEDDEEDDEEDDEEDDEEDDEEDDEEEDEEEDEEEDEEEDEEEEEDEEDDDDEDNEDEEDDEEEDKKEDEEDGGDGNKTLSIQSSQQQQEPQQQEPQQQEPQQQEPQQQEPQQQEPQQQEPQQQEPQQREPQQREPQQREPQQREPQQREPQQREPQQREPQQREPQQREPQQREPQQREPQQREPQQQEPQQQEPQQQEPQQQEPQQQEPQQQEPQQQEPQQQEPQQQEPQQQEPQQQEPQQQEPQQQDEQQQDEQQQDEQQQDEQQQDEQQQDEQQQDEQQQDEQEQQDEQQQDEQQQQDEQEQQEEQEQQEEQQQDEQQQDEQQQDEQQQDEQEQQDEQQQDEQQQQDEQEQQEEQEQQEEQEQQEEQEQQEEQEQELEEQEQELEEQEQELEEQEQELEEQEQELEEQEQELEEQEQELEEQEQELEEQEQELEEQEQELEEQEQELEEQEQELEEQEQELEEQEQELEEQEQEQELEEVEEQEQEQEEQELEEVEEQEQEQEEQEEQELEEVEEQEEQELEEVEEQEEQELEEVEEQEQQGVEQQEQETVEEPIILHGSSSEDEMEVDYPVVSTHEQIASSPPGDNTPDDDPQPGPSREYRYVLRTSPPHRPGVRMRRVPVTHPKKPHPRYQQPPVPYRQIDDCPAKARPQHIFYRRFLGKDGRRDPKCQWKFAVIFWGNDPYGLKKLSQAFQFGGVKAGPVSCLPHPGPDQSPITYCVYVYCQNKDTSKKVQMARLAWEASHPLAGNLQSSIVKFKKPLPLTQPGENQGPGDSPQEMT
UCH37 inh = human UCH37 deubiquitinating enzyme inhibition. inhibition, % (concentration not given with the values). 330,000 tested, 0.33% active. purified proteasome/UCH37, Ub-AMC cleavage fluorescence. Q9Y5K5;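 active means mean of two replicates above 20%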;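 further: 0% = compound-free wells with enzyme and 100% = wells lacking proteasome; stock transfer was 100 nL into about 20 µL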
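Material: Human UCH37 enzyme supplied as purified proteasome complex | Schedule: 30 min preincubation with enzyme, 25 min cleavage at room temperature | Detection: AMC fluorescence 355/460 nm | Measure: % inhibition of Ub-AMC cleavage fluorescence | Controls: Wells without proteasome as full block, compound-free enzyme plus substrate as uninhibited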
An asterisk follows results filed as active; ? = inconclusive; · = no result given. Hits appear at their usual frequency. Share with any hit: about 4.3%.

SMILES	Beta apoptosis	T cruzi repl	Calb FLC	RanGTP-Imp inh	Beta2AR agonist	A1 inh	LANA-H2A inh	UCH37 inh
COc1ccc(CCN2CCCC(CN(C)C(=O)c3ccoc3)C2)cc1 (stereo unspecified)	-9	35	8	-1.6	0	-0.4	15*	3.2
CCSc1nc2ccccc2n1S(=O)(=O)c1ccccc1	-3	·	·	·	-8	0.7	11	2.9
COc1cccc(N(C(=O)CNC(=O)c2ccco2)C(C(=O)NC2CCCC2)c2ccco2)c1 (stereo unspecified)	-2	9	9	2.6	3	0.2	-0.9	2.3
O=C(O)Cc1ccc(OCc2ccc(Cl)nc2)cc1	-1	-4	0	-2.0	1	-0.4	-109	2.7
CSc1nc2nc(-c3ccc(F)cc3)c(CCN3CCN(C)CC3)cn2n1	-2	32	0	2.4	-7	-0.2	2.7	-1.4
COCCN(C(=O)COC(=O)c1ccc(Cl)nc1)c1c(N)n(Cc2ccccc2)c(=O)[nH]c1=O	-5	-6	-4	-3.5	-12	-0.3	-0.8	1.9
O=C1Nc2ccccc2C12NCCc1c2[nH]c2ccccc12 (stereo unspecified)	-2	-9	25	1.6	-4	-0.4	-1.3	1.1
CCOC(=O)c1ccc(-c2ccc(/C=C(\C#N)C(=O)NCC3CCCO3)o2)cc1 (stereo unspecified)	0	-1	1	2.4	20	0.0	0.6	·
COC(=O)c1cc(NC(=O)c2cc(-c3ccc(C(F)(F)F)cc3)oc2C(F)(F)F)ccc1N1CCOCC1	·	21	3	0.4	6	0.0	2.0	-2.4
CC/C(=N\NC(=O)c1c(C)nc2ccccn12)c1ccccc1	4	-6	3	2.8	-5	0.2	6.6	·
COc1ccc(N2CCN(C(=O)CCc3nc(-c4ccc(C)cc4)no3)CC2)cc1	-1	-4	24	5.0	0	-0.4	-2.7	2.1
O=c1c2cccnc2[nH]c(=S)n1Cc1ccccc1	-8	-17	19	3.6	-2	-0.2	1.1	7.1
Cc1ccc(S(=O)(=O)N(C)CC(=O)OCC(=O)NCCN2C(=O)CSC2=O)cc1	2	·	·	·	2	0.7	-2.4	0.9
CCc1cc2c(cc3c(=O)n(CC(=O)NCCCN4CCCCCC4)nc(CC)n32)s1	-2	-4	-5	-3.0	-2	-1.1	1.4	1.5
c1ccc(NCc2nc3ccccc3n2CCOc2ccccc2)cc1	3	30	-2	2.9	-14	-4.0	-5.1	2.6
Cc1ccc(CN2C(=O)CCC2C(=O)NCc2ccc(F)cc2)cc1 (stereo unspecified)	1	-13	4	3.3	-5	-0.4	4.5	1.6
C=CCOC(=O)c1ccc(N2CCN(c3ccccc3)CC2)nc1	-6	12	-20	0.2	0	-5.1	2.8	-1.4
Cc1cccc(-n2ncc3c(=O)[nH]c(SCC(=O)NCCC4=CCCCC4)nc32)c1	-3	·	·	·	0	0.5	1.8	-0.5
CCOC(=O)c1nc(NNC(=O)c2ccc([N+](=O)[O-])cc2)sc1C	103*	41	116*	-2.2	5	0.8	-2.0	5.2
Cc1ccc(CNC(=O)[C@H]2C[C@@H]2[C@H](NP(=O)(c2ccccc2)c2ccccc2)c2ccccc2)o1	3	-25	-3	7.0	1	-0.1	-0.4	3.4
CCOC(=O)c1cc(S(=O)(=O)NCc2ccc3c(c2)OCO3)cn1C	-4	-10	-3	-0.4	2	0.3	-2.4	1.3
CCCn1c(=O)c(C#N)cn(C2CC2)c1=O	-7	-7	3	5.3	-2	0.4	3.1	1.3
CCCCCc1ccc(-c2cn(CCc3c[nH]c4ccccc34)nn2)cc1	1	6	1	-1.3	-2	0.4	-1.3	4.5
Cc1nc(Br)c(Br)c(C)c1Br	-11	2	-1	-0.7	2	-0.3	-0.3	·
Cc1ccc[n+](CC(=O)N2CCCc3ccccc32)c1	-2	-10	19	-3.4	7	0.5	-4.0	1.0

Look-ups from the list:
A1 inh, COC(=O)c1cc(NC(=O)c2cc(-c3ccc(C(F)(F)F)cc3)oc2C(F)(F)F)ccc1N1CCOCC1 stands at 0.0
Calb FLC, COc1ccc(CCN2CCCC(CN(C)C(=O)c3ccoc3)C2)cc1 (stereo unspecified) stands at 8
RanGTP-Imp inh, COc1cccc(N(C(=O)CNC(=O)c2ccco2)C(C(=O)NC2CCCC2)c2ccco2)c1 (stereo unspecified) stands at 2.6

(list continues)
SMILES	Beta apoptosis	T cruzi repl	Calb FLC	RanGTP-Imp inh	Beta2AR agonist	A1 inh	LANA-H2A inh	UCH37 inh
CCC(CC)NC(=O)Nc1ccc(C)cc1	1	-7	4	6.9	-6	-0.3	4.3	0.3
COc1cc(C2NC(=S)NC(C)=C2C(=O)Nc2ccc(C)cc2)ccc1O (stereo unspecified)	-7	2	-4	-1.4	-1	0.0	-6.9	2.7
O=C(c1c(F)cccc1F)N(Cc1ccccc1)Cc1ccccc1	0	1	-13	-0.7	2	0.7	-0.7	3.0
O=[N+]([O-])c1ccc2[nH]c3c(c2c1)CCCC3	3	22	-3	-5.3	-1	0.8	-0.1	5.2
COc1ccccc1NC(=S)NC1CCC(CC2CCC(NC(=S)Nc3ccccc3OC)CC2)CC1 (stereo unspecified)	·	44	3	1.2	3	0.1	4.7	1.5
CN(C)S(=O)(=O)c1ccc(C(=O)NCc2nnc(SCC(=O)NCc3ccco3)o2)cc1	-3	-2	-2	0.6	-4	0.5	-6.4	1.4
Cc1ccc(CS/C(Nc2ccccc2C)=C(\C#N)C(N)=O)c(C)c1	-9	31	2	5.4	-5	0.5	-2.0	7.6
CCC(C)(C)NC(=O)CN(Cc1ccc2c(c1)OCO2)C(=O)CCC(=O)Nc1nccs1	-6	3	-19	3.6	-6	-0.7	2.9	3.2
COc1cc(/C=N\NC(=O)c2nonc2N)c(OC)cc1Br	1	-18	-23	-3.6	-8	-0.6	0.6	·
O=C(c1cccc(NS(=O)(=O)c2ccc(Br)cc2)c1)N1CCCCC1	·	-5	-8	-1.5	4	0.3	1.0	0.0
O=C(Cc1ccc(F)cc1)NCCc1cnc[nH]1	-3	18	-3	?	6	0.9	-0.8	4.3
NC(=O)NC(c1ccc(Cl)cc1)c1ccccc1Cl (stereo unspecified)	-1	11	0	-1.9	-7	0.0	-0.1	6.2
COc1ccc(/C=N/NC(=O)c2ccncc2)c(OC)c1	0	-3	-3	-4.9	-1	0.8	-3.1	·
O=C(Nc1ccc2c(c1)OCO2)C1COc2ccccc2O1 (stereo unspecified)	6	0	-9	0.3	5	-2.2	6.1	1.5
CCc1ccc(OCC2NCCc3cc(OC)c(OC)cc32)cc1 (stereo unspecified)	1	36	-21	1.8	3	1.4	1.7	1.4
O=C1NC2(CCCCCC2)C(=O)N1Cc1ccc([N+](=O)[O-])cc1	2	12	-19	-1.0	-2	1.0	5.4	0.0
CCCNC(=O)CC(NS(=O)(=O)c1ccc(Cl)cc1)c1ccco1 (stereo unspecified)	·	-7	-7	?	8	0.0	-2.1	0.7
Cc1ccc(C(=O)c2ccccc2C(=O)OCC(=O)NCCc2ccccc2)cc1	·	-2	-3	0.5	-2	-0.3	4.3	0.5
O=C(NCC1CCCO1)c1cc(NS(=O)(=O)c2cccs2)cc(NS(=O)(=O)c2cccs2)c1 (stereo unspecified)	-4	-7	0	0.5	0	0.2	0.2	3.8
NNC(=S)Nc1ccc(S(=O)(=O)N2CCCCC2)cc1	-1	4	7	1.0	1	0.5	-0.3	3.6
Cc1[nH]c2ccccc2c1SCCN	-10	-12	-3	-8.2	5	1.3	5.4	1.1
CCCCC(=O)Nc1ccc(NC(=S)NC(=O)c2cccs2)cc1OC	5	-15	1	0.4	-8	0.4	-1.4	2.9
CCc1ccc(C(O)(CNCc2ccccc2)c2ccccc2)cc1 (stereo unspecified)	12	14	5	0.1	-4	0.3	-3.7	1.9
COc1ccc(-c2csc(NC(=O)CCN3C(=O)C4CC=CCC4C3=O)n2)cc1OC (stereo unspecified)	0	28	-4	3.3	11	1.0	-4.6	·
COc1ccc(N2C(=O)CC(Nc3cccc([N+](=O)[O-])c3)C2=O)cc1 (stereo unspecified)	-2	-11	-7	?	-9	-0.4	3.6	5.6
(cont.)
SMILES	Beta apoptosis	T cruzi repl	Calb FLC	RanGTP-Imp inh	Beta2AR agonist	A1 inh	LANA-H2A inh	UCH37 inh
O=C(N/N=C/c1ccc(O)cc1)c1cncc(Br)c1	-8	-6	·	1.9	5	-0.7	1.1	·
CC(C)(C)S(=O)(=O)c1cnc(N2CCCCC2)nc1N	-3	-5	1	-0.2	-4	-2.3	4.0	0.0
CCOC(=O)c1c(NC(=O)c2ccc(-n3cnnn3)cc2)sc2c1CCCC2	·	4	7	?	25	·	·	-54
O=C(NCc1ccccc1)NC(=O)c1ccncc1	-7	-8	-13	-0.1	-8	1.2	4.2	4.2
Cc1cccc(-n2nc([N+](=O)[O-])c(=NCc3cccnc3)n2O)c1	34	55*	29	-12	-1	0.2	-3.3	-0.4
O=C(CN1C2CCC1CC(NC(=O)NC1CCCCC1)C2)NC1CC1 (stereo unspecified)	·	-14	12	1.1	-6	0.9	-3.1	1.8
CCOc1ccccc1NC(=O)N1CCCN(c2ncccc2C#N)CC1	0	2	-5	2.0	-1	-0.8	-0.2	-16
Cc1nc(SCc2ccccc2)nc2c1CCC2	-6	9	-13	-0.4	-14	-0.2	-2.7	0.5
CC1(C)Cc2c(sc(NC(=O)C(=O)NCCCN3CCOCC3)c2C#N)CO1	-3	-9	·	-2.8	-1	-0.3	3.6	8.7
CC(C)c1cccc(C(C)C)c1OCCCCCN1CCOCC1	-2	13	-18	3.4	7	0.1	1.7	6.5
CC1(C)CC(=O)C2=C(C1)c1c(ccc3ccccc13)NC2c1cc([N+](=O)[O-])cc([N+](=O)[O-])c1O (stereo unspecified)	-4	-6	111*	-2.4	14	0.6	-1.9	13
C[n+]1ccc(C(=O)NCc2ccccc2)cc1	3	-11	-4	4.5	6	-2.1	-20	3.7
O=C(c1ccccc1CCc1ccccc1)N1CCCC1	-5	-4	31	-0.6	-2	-0.1	-9.8	5.8
Cc1ccc(OCC(=O)N(C)CC(=O)Nc2ccc(Cl)c(C(F)(F)F)c2)c([N+](=O)[O-])n1	-6	·	·	·	-1	1.1	105*	1.6
O=C(O)[C@H](Cc1c[nH]c2ccccc12)Nc1ncccc1[N+](=O)[O-]	-3	4	8	2.9	3	1.2	-3.2	4.5
CCCc1cc(C(=O)Nc2ccc(F)cc2F)no1	3	-9	-2	2.0	-11	-4.4	2.5	7.2
Cc1cccc2cc(C#N)c(N3CCC(O)CC3)nc12	-5	-20	39	29*	4	-0.1	-3.6	-57
CSc1cccc(CN2CCN(CCc3ccccc3)C(CCO)C2)c1 (stereo unspecified)	-2	19	-25	?	-10	0.0	-1.3	2.4
CCCCc1ccc(S(=O)(=O)NCCc2ccncc2)cc1	18	·	-5	-5.4	0	0.8	0.3	3.2
Cc1cccc(CSCCNC(=O)COc2ccc(Cl)cc2)c1	4	-4	-1	0.9	0	0.1	-1.5	-3.1
CCc1nn(CCCC(=O)NCc2ccco2)c(=O)c2cc3occc3n12	2	-6	-21	0.6	-12	1.8	1.6	2.1
CCOC(=O)c1c(NC(=O)c2cccnc2)sc(C(C)=O)c1C	-2	-16	0	-0.3	-22	-0.1	5.0	4.3
COCCn1c(NCc2ccccc2)nc2c1c(=O)[nH]c(=O)n2C	-5	-10	9	5.9	-1	0.0	-4.3	-0.9
